# Env fusion inh – blocks HIV Env-driven cell-cell fusion; inhibition, % at 12.3 µM; HeLa-JRFL Env/CEM21 cell fusion, luciferase; AID 651610; 360,000 compounds, 1.1% hits;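 active = mean replicate inhibition score of at least 50 and every replicate individually at or above 50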;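 also: 0% = plate neutral controls and 100% = maraviroc near 300 nM; one replicate is shown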
# UUG fidelity – modulators of start codon recognition fidelity in yeast; AID 602363; 350,000 compounds, 0.13% hits; activity score, % at 18.7 µM; S. cerevisiae UUG-firefly luciferase reporter, luminescence/redox ratio;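 active = replicate mean at a twofold rise or more, about +100% in these data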;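 also: firefly luciferase made from a UUG start codon reports start codon fidelity; reporter light over untreated wells divided by growth signal over untreated wells; some hits fall short of that in this replicate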
# * marks the source's active call; other numbers are inactive results; [ ] = remark or other dose. These rows are one share of the data, so the mix of outcomes need not match the whole.
# The line under a structure holds: UUG fidelity, Env fusion inh
Cn1cnc(S(=O)(=O)N[C@H]2CC[C@@H](CC(=O)NCC3CC3)O[C@H]2CO)c1
    -11, 8[16.7 µM]
C[C@H]1CN([C@@H](C)CO)C(=O)c2cc(Br)cnc2O[C@@H]1CN(C)Cc1ccc2c(c1)OCO2
    -10, 5[16.7 µM]
C[C@@H]1CN([C@@H](C)CO)C(=O)c2cc(NC(=O)Nc3ccccc3)ccc2O[C@H]1CN(C)Cc1ccncc1
    -10, 2[16.7 µM]
CC(C)CC#Cc1cnc2c(c1)C(=O)N([C@@H](C)CO)C[C@H](C)[C@@H](CN(C)Cc1ccc3c(c1)OCO3)O2
    -1, -17[16.7 µM]
C=CCNC(=O)[C@@H]1[C@H]2C(=O)O[C@H](c3ccccc3)[C@H](c3ccccc3)N2[C@H](c2ccccc2OCCO)[C@@]12C(=O)Nc1ccc(C#Cc3ccc(OC)cc3)cc12
    -8, 40[16.7 µM]
C[C@H](CO)N1C[C@H](C)[C@H](CN(C)C(=O)Nc2cc(F)ccc2F)Oc2cc(/C=C/c3ccccc3)ccc2S1(=O)=O
    -14, 33[16.7 µM]
COc1ccc(-c2ccc3c(c2)O[C@H](CN(C)CC2CC2)[C@H](C)CN([C@@H](C)CO)S3(=O)=O)cc1
    -7, 4[16.7 µM]
C[C@H]1CN([C@@H](C)CO)C(=O)Cc2cc(NC(=O)Nc3ccc4c(c3)OCO4)ccc2O[C@@H]1CN(C)Cc1ccc(C(=O)Nc2ccccc2N)cc1
    -2, 4[16.7 µM]
O=C(NCC[C@@H]1CC[C@H](NC(=O)c2ccccc2F)[C@@H](CO)O1)c1ccc2c(c1)OCO2
    -11, 13[16.7 µM]
O=C(Nc1ccc2c(c1)[C@H]1C[C@H](CC(=O)N3CCOCC3)O[C@H](CO)[C@H]1O2)c1ccc2c(c1)OCO2
    -2, 12[16.7 µM]
C[C@H]1CN([C@@H](C)CO)C(=O)c2cc(NC(=O)Nc3ccc4c(c3)OCO4)ccc2O[C@H]1CN(C)Cc1ccc(Oc2ccccc2)cc1
    8, 31[16.7 µM]
CC(C)NC(=O)N[C@@H]1CC[C@@H](CC(=O)NCCN2CCCC2)O[C@H]1CO
    0, 9[16.7 µM]
CO[C@@H]1CN(C)C(=O)c2ccc(NC(C)=O)cc2OC[C@@H](C)N(Cc2ccccn2)C[C@H]1C
    -14, 0[16.7 µM]
C[C@@H]1CN([C@@H](C)CO)C(=O)Cc2cc(NS(=O)(=O)c3cn(C)cn3)ccc2O[C@H]1CN(C)CC1CCCCC1
    -10, 8[16.7 µM]
O=C(Nc1ccccc1F)N[C@@H]1CC[C@@H](CCNS(=O)(=O)c2ccccc2)O[C@H]1CO
    10, -2[16.7 µM]
CC(C)NC(=O)Nc1cccc2c1O[C@H](CN(C)S(C)(=O)=O)[C@H](C)CN([C@@H](C)CO)C2=O
    -5, 0[16.7 µM]
CC(C)C#Cc1cnc2c(c1)C(=O)N([C@H](C)CO)C[C@@H](C)[C@H](CN(C)Cc1ccccn1)O2
    22, 15[16.7 µM]
C[C@@H]1CCCCO[C@H](CN(C)S(=O)(=O)c2ccc(Cl)cc2)[C@@H](C)CN([C@H](C)CO)C(=O)c2cc(NC(=O)CCCN(C)C)ccc2O1
    5, 10[16.7 µM]
O=C(Cc1ccccn1)N[C@@H]1CC[C@H](CC(=O)N2CCCCC2)O[C@H]1CO
    -15, -1[16.7 µM]
O=C(C[C@H]1CC[C@H]2[C@@H](COC[C@H](O)CN2C(=O)Nc2ccc(F)cc2)O1)NCCc1ccccc1
    0, -10[16.7 µM]

# Structural class: those above with fluorine.
# The line under a structure holds: UUG fidelity, Env fusion inh
C[C@H](CO)N1C[C@H](C)[C@H](CN(C)C(=O)Nc2cc(F)ccc2F)Oc2cc(/C=C/c3ccccc3)ccc2S1(=O)=O
    -14, 33[16.7 µM]
O=C(NCC[C@@H]1CC[C@H](NC(=O)c2ccccc2F)[C@@H](CO)O1)c1ccc2c(c1)OCO2
    -11, 13[16.7 µM]
O=C(Nc1ccccc1F)N[C@@H]1CC[C@@H](CCNS(=O)(=O)c2ccccc2)O[C@H]1CO
    10, -2[16.7 µM]
O=C(C[C@H]1CC[C@H]2[C@@H](COC[C@H](O)CN2C(=O)Nc2ccc(F)cc2)O1)NCCc1ccccc1
    0, -10[16.7 µM]

# The listing picks up, repeating the 3 entries before the break.
# The line under a structure holds: UUG fidelity, Env fusion inh
C[C@@H]1CCCCO[C@H](CN(C)S(=O)(=O)c2ccc(Cl)cc2)[C@@H](C)CN([C@H](C)CO)C(=O)c2cc(NC(=O)CCCN(C)C)ccc2O1
    5, 10[16.7 µM]
O=C(Cc1ccccn1)N[C@@H]1CC[C@H](CC(=O)N2CCCCC2)O[C@H]1CO
    -15, -1[16.7 µM]
O=C(C[C@H]1CC[C@H]2[C@@H](COC[C@H](O)CN2C(=O)Nc2ccc(F)cc2)O1)NCCc1ccccc1
    0, -10[16.7 µM]
COCC(=O)Nc1ccc2c(c1)[C@H]1C[C@@H](CC(=O)NCc3cccc(F)c3)O[C@@H](CO)[C@H]1O2
    -13, -6[16.7 µM]
C[C@H]1CN([C@@H](C)CO)C(=O)c2cc(C#CC3CC3)cnc2O[C@H]1CN(C)C(=O)Cc1ccccn1
    5, -7[16.7 µM]
COc1ccc(NC(=O)N(C)C[C@@H]2Oc3ccc(NC(=O)c4ccncc4)cc3CC(=O)N([C@@H](C)CO)C[C@@H]2C)cc1
    -8, 13[16.7 µM]
C[C@@H]1CN([C@H](C)CO)C(=O)Cc2cc(NC(=O)Cc3cn(C)c4ccccc34)ccc2O[C@@H]1CN(C)S(=O)(=O)c1cccs1
    -6, -17[16.7 µM]
C[C@@H]1CCCCO[C@@H](CN(C)C)[C@H](C)CN([C@@H](C)CO)C(=O)c2cc(NS(=O)(=O)c3ccccc3)ccc2O1
    -10, 9[16.7 µM]
CC(C)C(=O)Nc1ccc2c(c1)C(=O)N(C)[C@H]1CC[C@@H](CC(=O)N[C@@H](C)c3ccccc3)O[C@@H]1CO2
    15, 12[16.7 µM]
C[C@H](CO)N1C[C@H](C)[C@H](CN(C)C(=O)Nc2ccc(F)cc2)Oc2c(NS(=O)(=O)c3ccc(Cl)cc3)cccc2C1=O
    15, -7[16.7 µM]
C[C@@H]1CN([C@@H](C)CO)C(=O)c2cc(NS(=O)(=O)c3cccs3)ccc2O[C@@H](C)CCCCO[C@@H]1CN(C)C(=O)c1ccncc1
    3, -36[16.7 µM]
CNC[C@H]1Oc2ccc(NC(=O)CCC(F)(F)F)cc2C(=O)N([C@H](C)CO)C[C@@H]1C
    -13, -31[16.7 µM]
COc1ccc(NC(=O)N(C)C[C@@H]2OCCCC[C@@H](C)Oc3ccc(NC(=O)c4ccncc4)cc3C(=O)N([C@H](C)CO)C[C@@H]2C)cc1
    -4, -2[16.7 µM]
C[C@@H]1CCCCO[C@H](CN(C)C(=O)C2CCCCC2)[C@@H](C)CN([C@@H](C)CO)C(=O)c2cc(NC(=O)C3CCCCC3)ccc2O1
    13, -20[16.7 µM]
C[C@@H]1CN([C@@H](C)CO)S(=O)(=O)c2ccc(-c3ccc(C#N)cc3)cc2O[C@@H]1CN(C)C(=O)CN(C)C
    -1, 4[16.7 µM]
C[C@H]1CCCCO[C@H](CN(C)C(=O)CCC(F)(F)F)[C@@H](C)CN([C@@H](C)CO)C(=O)c2cc(NS(=O)(=O)c3ccc(F)cc3)ccc2O1
    2, 34[16.7 µM]
CCCC(=O)Nc1ccc2c(c1)C(=O)N(C)[C@@H]1CC[C@H](CC(=O)NCCCN(C)C)O[C@@H]1CO2
    -17, 2[16.7 µM]
C[C@@H]1CN([C@H](C)CO)S(=O)(=O)c2ccc(C3=CCCCC3)cc2O[C@H]1CN(C)Cc1cccnc1
    -8, 25[16.7 µM]
CO[C@H]1CN(C)C(=O)c2cc(NS(=O)(=O)c3ccc(C)cc3)ccc2OC[C@H](C)NC[C@@H]1C
    -8, -14[16.7 µM]
C[C@@H]1CN([C@H](C)CO)S(=O)(=O)c2ccc(C#C[C@@H](C)O)cc2O[C@@H]1CN(C)C(=O)c1ccncc1
    -5, 16[16.7 µM]
O=C(C[C@@H]1C=C[C@@H](NC(=O)C2CC2)[C@H](CO)O1)NCCCN1CCOCC1
    -1, -30[16.7 µM]
C[C@@H]1CN([C@H](C)CO)C(=O)c2cc(NS(C)(=O)=O)ccc2O[C@@H](C)CCCCO[C@@H]1CN(C)C(=O)c1ccncc1
    0, 16[16.7 µM]
C[C@@H]1CN([C@H](C)CO)C(=O)Cc2cc(NC(=O)Nc3cccc4ccccc34)ccc2O[C@H]1CN(C)C(=O)Nc1ccc(F)cc1
    1, 33[16.7 µM]
C[C@@H]1CCCCO[C@@H](CN(C)C(=O)CCCN(C)C)[C@@H](C)CN([C@H](C)CO)C(=O)c2cc(NC(=O)NC3CCCCC3)ccc2O1
    18, 5[16.7 µM]
CN(C)CC(=O)N[C@@H]1CC[C@@H](CCNC(=O)C2CCCCC2)O[C@@H]1CO
    -12, -15[16.7 µM]
CN(C)C(=O)C[C@@H]1CC[C@@H]2[C@H](COc3ccc(NC(=O)C4CCOCC4)cc3C(=O)N2C)O1
    0, -33[16.7 µM]
Cc1noc(C)c1NC(=O)N(C)C[C@H]1OCCCC[C@H](C)Oc2ccc(NS(C)(=O)=O)cc2C(=O)N([C@@H](C)CO)C[C@H]1C
    7, -18[16.7 µM]
C[C@H]1CN([C@@H](C)CO)C(=O)c2cccc(NC(=O)c3ccc(-c4nccs4)cc3)c2O[C@H]1CN(C)C(=O)Nc1ccc(F)cc1
    9, -21[16.7 µM]
C[C@H]1CN([C@@H](C)CO)C(=O)c2cc(/C=C/c3ccccc3)cnc2O[C@@H]1CN(C)C(=O)c1cccc(F)c1
    15, 9[16.7 µM]
C[C@H](CO)N1C[C@H](C)[C@H](CN(C)S(=O)(=O)c2cccs2)Oc2ncc(/C=C/c3ccccc3)cc2C1=O
    -12, 44[16.7 µM]
CCCNC(=O)N1[C@@H](C#N)[C@@H](c2ccccc2)[C@@H]1CO
    20, 1[16.7 µM]
COCCNC(=O)C[C@@H]1C[C@@H]2c3cc(NS(=O)(=O)c4ccc(F)cc4)ccc3O[C@@H]2[C@H](CO)O1
    36, 4[16.7 µM]
C[C@H]1CCCCO[C@@H](CN(C)C(=O)c2ccccc2)[C@@H](C)CN([C@@H](C)CO)C(=O)c2cc(NC(=O)Cc3ccccc3)ccc2O1
    19, 4[16.7 µM]
C[C@@H]1CCCCO[C@@H](CN(C)C(=O)CCC(F)(F)F)[C@@H](C)CN([C@@H](C)CO)C(=O)c2cc(NS(=O)(=O)c3cn(C)cn3)ccc2O1
    -13, 44[16.7 µM]
COc1ccc(S(=O)(=O)N(C)C[C@@H]2OCCCC[C@@H](C)Oc3ccc(NC(=O)Nc4ccc(F)cc4)cc3C(=O)N([C@@H](C)CO)C[C@@H]2C)cc1
    -10, -5[16.7 µM]
C[C@@H]1CN([C@H](C)CO)C(=O)c2cccc(NC(=O)Nc3ccc(C(F)(F)F)cc3)c2O[C@@H]1CN(C)Cc1ccc(Oc2ccccc2)cc1
    1, -9[16.7 µM]
C[C@H](CO)N1C[C@H](C)[C@H](CN(C)S(=O)(=O)c2ccc(Cl)cc2)Oc2ccc(NC(=O)Nc3ccc(F)cc3)cc2C1=O
    -11, 5[16.7 µM]
O=C(C[C@@H]1CC[C@H](NC(=O)C2CCC2)[C@@H](CO)O1)NC1CCC1
    -8, -12[16.7 µM]
CCC(=O)Nc1ccc2c(c1)OC[C@@H](C)NC[C@H](C)[C@H](OC)CN(C)C2=O
    -9, -18[16.7 µM]
C[C@H](CO)N1C[C@H](C)[C@H](CN(C)CC2CCOCC2)Oc2cc(C#C[C@@H](C)O)ccc2S1(=O)=O
    -7, 11[16.7 µM]
CNC(=O)C[C@@H]1CC[C@H]2[C@H](COc3ccc(NC(=O)Nc4ccccc4OC)cc3C(=O)N2C)O1
    23, -8[16.7 µM]
CCC(=O)N(C)C[C@@H]1Oc2cc(-c3cccc(OC)c3)ccc2S(=O)(=O)N([C@H](C)CO)C[C@H]1C
    12, -15[16.7 µM]
CN(C)CC(=O)Nc1ccc2c(c1)[C@@H]1C[C@H](CC(=O)NCc3ccccc3)O[C@@H](CO)[C@@H]1O2
    -4, -21[16.7 µM]
C=CCNC(=O)[C@@H]1[C@H]2C(=O)O[C@H](c3ccccc3)[C@H](c3ccccc3)N2[C@H](c2ccc(OCCO)cc2)[C@@]12C(=O)Nc1ccc(C#Cc3ccc(OC)cc3)cc12
    8, -11[16.7 µM]
COc1ccc(NC(=O)N[C@H]2CC[C@@H](CCn3cc(-c4ccc(F)cc4)nn3)O[C@H]2CO)cc1
    33, -9[16.7 µM]
C[C@@H]1CN([C@@H](C)CO)C(=O)Cc2cc(NS(=O)(=O)c3ccccc3)ccc2O[C@@H]1CN(C)S(=O)(=O)c1ccc(F)cc1
    -3, -14[16.7 µM]
COc1ccc(S(=O)(=O)Nc2ccc3c(c2)C(=O)N([C@@H](C)CO)C[C@@H](C)[C@H](CN(C)S(=O)(=O)c2cccs2)OCCCC[C@H](C)O3)cc1
    -2, 3[16.7 µM]
O=C(C[C@H]1C=C[C@H](NC(=O)Nc2ccc3c(c2)OCO3)[C@H](CO)O1)NCc1ccc2c(c1)OCO2
    3, 1[16.7 µM]
C[C@@H]1CN([C@H](C)CO)C(=O)Cc2cc(NC(=O)Cc3ccccc3)ccc2O[C@H]1CN(C)Cc1ccc2c(c1)OCO2
    -3, 9[16.7 µM]
C[C@@H]1CCCCO[C@H](CN(C)C(=O)Cc2ccccc2)[C@@H](C)CN([C@H](C)CO)C(=O)c2cc(NS(C)(=O)=O)ccc2O1
    5, 2[16.7 µM]
C[C@H](CO)N1C[C@H](C)[C@H](CN(C)C(=O)CN2CCOCC2)Oc2ncc(C3=CCCCC3)cc2C1=O
    -14, 13[16.7 µM]
C[C@H](CO)N1C[C@H](C)[C@@H](CN(C)Cc2ccncc2)Oc2ncc(C#Cc3ccncc3)cc2C1=O
    3, 13[16.7 µM]

# Bioassay records (PubChem)
